UCH37 DUB inh: human UCH37 deubiquitinating enzyme inhibition; Q9Y5K5; purified proteasome/UCH37, Ub-AMC cleavage fluorescence; inhibition, % (test concentration not listed); 0.33% of 330,000 active; AID 588478;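 active means mean of two replicates above 20%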;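 further: 0% = compound-free wells with enzyme and 100% = wells lacking proteasome; stock transfer was 100 nL into about 20 µL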
Target sequence (Q9Y5K5 whole entry, looked up): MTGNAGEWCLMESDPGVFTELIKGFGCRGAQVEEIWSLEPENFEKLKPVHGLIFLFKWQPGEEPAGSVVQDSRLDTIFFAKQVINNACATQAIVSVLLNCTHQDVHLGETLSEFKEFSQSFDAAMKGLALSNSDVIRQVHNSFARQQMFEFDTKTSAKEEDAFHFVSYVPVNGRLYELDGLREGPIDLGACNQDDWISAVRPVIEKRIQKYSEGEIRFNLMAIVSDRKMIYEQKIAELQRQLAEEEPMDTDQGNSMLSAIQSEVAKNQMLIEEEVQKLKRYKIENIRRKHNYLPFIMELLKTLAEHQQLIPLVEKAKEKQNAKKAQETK
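Material: Human UCH37 enzyme supplied as purified proteasome complex | Schedule: 30 min compound-proteasome preincubation then 25 min substrate reaction, room temperature | Detection: AMC fluorescence from Ub-AMC cleavage, excitation 355 nm, emission 460 nm | Benchmarks: Wells without proteasome as full block, compound-free enzyme plus substrate as uninhibited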
Ecoli growth: inhibitors of Escherichia coli growth; AID 1053175; OD600 absorbance (test concentration not listed); 0.21% of 330,000 active; OD600, 23 h; hits give low values;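 active means OD600 absorbance below the run mean of sample wells minus 3.6 SD, in any replicate, cut at about 0.56 in these data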;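 further: stock transfer was 300 nL into about 60 µL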
The depositor's hits bear a star.

SMILES | UCH37 DUB inh | Ecoli growth
Brc1cc(C=Nn2cnnc2)oc1Br | 8.4 | 0.66
O=C(O)COc1ccc(C=NNC(=O)c2ccc(-c3csc(Nc4ccc(Cl)cc4)n3)cc2)cc1 | 5.6 | 0.71
COC(=O)c1nn(-c2ccccc2)c(Cl)c1C=NOCc1ccc(C)cc1 | 1.6 | 0.78
Cc1ccc(C)c(OCC(=O)NN=Cc2c(C)nn(-c3ccccc3)c2Cl)c1C | -2.6 | 0.72
Cc1cc(C(=O)NN=Cc2ccc(Br)o2)n[nH]1 | 4.2 | 0.69
CC(=NNC(=O)COc1ccc([N+](=O)[O-])cc1)c1ccco1 | -0.3 | 0.65
COc1ccc(C(=O)Oc2cccc(C=NNC(N)=S)c2)cc1 | 1.3 | 0.7
Cc1csc(=NN=Cc2ccccc2)n1Cc1ccco1 | 4.0 | 0.68
CC(Cn1nnc2ccccc21)=NOC(=O)c1cc(F)c(F)cc1Cl | 2.7 | 0.71
O=C(NN=Cc1cc([N+](=O)[O-])ccc1O)C1CCCCC1 | 11 | 0.68
ON=Cc1nc2cc(Cl)ccc2o1 | -4.5 | 0.72
CCn1cc(C=NO)c(C)n1 | 4.3 | 0.75
N#CCC(=O)NN=Cc1cc(-c2ccccc2)n(-c2ccc(Cl)cc2)c1-c1ccccc1 | -19 | 0.72
NC(CC(=O)Nc1cccc(C(F)(F)F)c1)=NO | 2.6 | 0.73
CCCCn1c(N=Cc2ccc3c(c2)OCO3)nc2ccccc21 | -2.4 | 0.69
CC(C)[C@H](NC(=O)OC(C)(C)C)C(=O)NN=Cc1ccc2nccnc2c1 | 3.4 | 0.67
O=C(O)c1ccc(NN=CC2=C(N3CCOCC3)/C(=C\c3ccccc3)CC2)cc1 | 0.4 | 0.67
Cc1ccccc1NC(C)C(=O)NN=Cc1ccccc1OCc1cccc(Br)c1 (stereo unspecified) | 2.7 | 0.77
Nc1nnc(CC(=O)NN=Cc2ccc([N+](=O)[O-])cc2)s1 | 8.0 | 0.7
NN=C(Cc1cscn1)c1ccc(O)cc1O | 5.4 | 0.67
Fc1ccccc1C=NNc1ncnc2nc[nH]c12 | 12 | 0.68
CCCOc1ccccc1C=NNc1ccnc(=O)[nH]1 | 3.6 | 0.51
CC(=O)ON=C(c1nonc1N)N1CCN(c2ccc([N+](=O)[O-])cc2Cl)CC1 | 6.4 | 0.71
Cc1cc(C=NNC(=O)c2c(Br)cnn2C)c(C)n1-c1cccc(Br)c1 | 0.5 | 0.64
Cc1nc2ccccn2c1C(=O)NN=Cc1ccccc1 | 5.3 | 0.66
O=C(NCC1CCCO1)C(=O)NN=Cc1ccc(O)c(Cl)c1 (stereo unspecified) | 18 | 0.67
COc1ccc(-c2csc(NC(=O)COC(=O)Cc3ccc(Cl)cc3Cl)n2)cc1 | 3.5 | 0.65
O=C(NN=Cc1ccc(OCC(=O)N2CCOCC2)cc1)c1ccccc1Cl | 5.7 | 0.71
Cc1cc(C)n(N=Cc2ccccc2O)c(=O)c1 | 1.4 | 0.66
Cc1nn(Cc2ccc(F)cc2)c(Cl)c1C=NNC(=O)c1ccccc1 | 0.7 | 0.72
CCN(CC)C(=O)COc1ccc(C(C)=NNC(=O)c2ccccc2Br)cc1 | 1.8 | 0.7
C[n+]1ccc(C(=O)NN=Cc2ccco2)cc1 | 13 | 0.68
CN(C)Cc1c(C(=O)NN=Cc2ccccc2OCc2ccc(F)cc2)nnn1-c1nonc1N | 5.6 | 0.72
O=[N+]([O-])c1cc(Br)c(O)c(C=NNc2nnnn2-c2cccc3ccccc23)c1 | 12 | 0.67
COc1cccc(C=NNc2ccc(Cl)nn2)c1OC | 5.2 | 0.64
CC1CCN(Cc2c(C(=O)NN=Cc3ccc(OC(C)C)cc3)nnn2-c2nonc2N)CC1 | 1.4 | 0.66
CC(=NNC(=O)c1nnn(-c2nonc2N)c1C)c1ccc(-c2ccccc2)cc1 | -5.5 | 0.71
CC(C)C=NNC(=O)c1ccc(Cl)cc1 | 2.7 | 0.66
CC(=NN=C(N)c1nonc1N)c1ccc2c(c1)OCO2 | 5.9 | 0.64
O=C(CCc1ccccc1)NN=Cc1cc2c(cc1Br)OCO2 | 1.4 | 0.69
CC(=NNC(=O)C(N)=O)c1ccc(OC(F)F)cc1 | 6.0 | 0.67
CC(CCc1ccccc1)=NNC(=O)c1ccccc1[N+](=O)[O-] | 0.1 | 0.66
CC(CCc1ccc2c(c1)OCO2)=NNC(=O)c1ccccc1Br | -0.8 | 0.65
CC(=O)Oc1ccc(C=NNC(=S)Nc2ccccc2)cc1 | 3.0 | 0.66
CCCCC(=O)Nc1cccc(C(=O)NN=Cc2ccc(OC)cc2OC)c1 | -0.1 | 0.65
Cn1c(=NNC(=O)c2ccccc2Br)sc2ccccc21 | 2.9 | 0.66
Cc1ccc(-c2nc(NN=Cc3ccccc3[N+](=O)[O-])c3ccccc3n2)cc1 | 5.0 | 0.68
NC(=NOC(=O)Cc1ccc([N+](=O)[O-])cc1)c1ccc([N+](=O)[O-])cc1 | 0.4 | 0.68
CC(=NNC(=O)c1ccc(N2CCCC2=O)cc1)c1ccccc1 | 1.5 | 0.66
O=C1CCCC(=NNC(=O)c2sc3ccccc3c2Cl)C1 | 12 | 0.64

(cont.)
SMILES | UCH37 DUB inh | Ecoli growth
O=C1CS/C(=N/N=Cc2ccncc2)N1 | 12 | 0.61
CCn1cc(C=NNC(=O)c2ccc3c(c2)OCO3)c(C)n1 | 4.3 | 0.64
COc1cccc(C=NNC(=O)CON=C(C)c2cccs2)c1OC | -1.6 | 0.71
CCOC(=O)CCCc1ccc(C(C)=NNC(N)=S)cc1 | -0.6 | 0.66
O=C(NN=Cc1cc([N+](=O)[O-])cc(Br)c1O)C12CC3CCC(CC(C3)C1)C2 | 6.9 | 0.65
O=C(Cc1cc(=O)[nH][nH]1)NN=Cc1ccccc1[N+](=O)[O-] | 4.9 | 0.72
NC(=O)C(=O)NN=Cc1cccc(C(F)(F)F)c1 | 0.3 | 0.69
C=CCc1cccc(C=Nc2ncccc2O)c1O | 3.9 | 0.69
O=C(NN=Cc1ccc(OC(=O)c2ccccc2)cc1)c1ccc(CN2CCOCC2)cc1 | 2.9 | 0.7
CC(=NNC(=O)c1cc(-c2ccc(C)s2)nc2ccccc12)c1cccnc1 | -480 | 0.7
COC(=O)c1nn(-c2ccccc2)c(Cl)c1C=NOCc1c(Cl)cccc1Cl | 2.0 | 0.68
CNc1nc(NN=Cc2cc3c(cc2[N+](=O)[O-])OCO3)nc(Nc2ccccc2)n1 | 7.3 | 0.67
COc1cccc(C=NNC(=O)C(=O)N2CCCCCC2)c1OC | 1.0 | 0.68
Cc1ccc(C)c(C=NNc2nc3ccccc3c(=O)n2O)c1 | 2.3 | 0.68
CC(=NO)C(=O)OC1CC(C)CCC1C(C)C (stereo unspecified) | 0.4 | 0.65
CC(=O)c1sc(NN=C2CC3CCC2(C)C3(C)C)nc1C (stereo unspecified) | -3.1 | 0.67
Cc1ccc(C=NNC(=O)CN2CCN(Cc3ccccc3)CC2)s1 | 4.7 | 0.65
N#CC1=CN(Cc2ccccc2)C=C(C=NNc2ccccc2)C1 | -9.7 | 0.69
C(=NNc1nc(-c2ccccc2)cs1)c1cccs1 | -0.3 | 0.71
N#CC(=NNc1cccc(Cl)c1)C(=O)c1ccccc1 | 7.2 | 0.68
Cc1cc(=O)[nH]c(NN=Cc2cccc([N+](=O)[O-])c2)n1 | 5.3 | 0.68
Oc1c(Br)cc(C=NNC(=S)NCc2ccco2)cc1Br | -34 | 0.67
COc1cc(C=NNC(=O)CNC(=O)c2cccs2)ccc1O | -0.2 | 0.67
CN(C)Cc1c(C(=O)NN=CC2CC=CCC2)nnn1-c1nonc1N (stereo unspecified) | 4.3 | 0.65
O=C(CN1CCN(S(=O)(=O)c2ccc(Br)cc2)CC1)NN=Cc1ccncc1 | 1.9 | 0.68
COc1ccc(C=NOCc2ccccc2C#N)c(OC)c1 | 4.9 | 0.61
COc1ccc(Br)cc1C=NNC(=O)c1ccc(OC)c(OC)c1 | 2.8 | 0.68
CON=C(CN1CCCCC1)c1ccc(Cl)cc1 | 3.7 | 0.66
O=C(O)c1ccc(C=NNC(=S)NCCN2CCOCC2)cc1 | 6.3 | 0.68
COc1cc(C=Nn2c(-c3n[nH]c4c3CCC4)n[nH]c2=S)ccc1O | 4.4 | 0.71
COc1cccc(OC(C)c2ccnc3nc(N=CN(C)C)nn23)c1 (stereo unspecified) | -48 | 0.61
O=C(NN=C/C(Br)=C/c1ccccc1)C1CC1 | -3.1 | 0.59
COc1cccc(C=NNC(=O)CNC(=O)C(c2ccccc2)c2ccccc2)c1O | 1.6 | 0.7
COc1ccc(C=NNC(=O)c2cc(-c3ccccc3OC(C)C)nc3ccccc23)cc1CN1CCOCC1 | 1.4 | 0.65
O=C(NN=C/C=C\c1ccccc1[N+](=O)[O-])c1cccnc1 | 8.2 | 0.67
CC(=NNC(=O)Cc1c(F)cccc1Cl)c1cccnc1 | 3.8 | 0.68
O=C(CSc1nc2ccccc2[nH]1)NN=C/C=C/c1ccccc1[N+](=O)[O-] | 2.2 | 0.69
N#Cc1cc([N+](=O)[O-])ccc1Oc1cccc(C=NNC(=O)c2ccc(Cl)cc2)c1 | 2.8 | 0.72
CC1CCN(S(=O)(=O)c2ccc(NN=C(C#N)C(N)=O)cc2)CC1 | 14 | 0.71
COc1ccc(C=NNC(=O)CNC(=O)C2COc3ccccc3O2)cc1[N+](=O)[O-] (stereo unspecified) | -0.6 | 0.68
O=C(O)CCC(=NNc1ncc(C(F)(F)F)cc1Cl)C(=O)O | 7.4 | 0.7
COC(=O)c1ccc(C=NNS(=O)(=O)c2cc(C)ccc2C)cc1 | 11 | 0.7
CC(=NN=C(N)N)c1cccc(Cl)c1 | 3.2 | 0.7
O=C(NN=Cc1cccc(Cl)c1)c1n[nH]c2c1CCCC2 | 6.4 | 0.71
O=C(NN=C/C(Br)=C/c1ccccc1)c1ccncc1 | 10 | 0.46*
C(/C=C/c1ccccc1)=NNc1ccc2nncn2n1 | 12 | 0.62
Cc1cc(C)n(CC(=O)NN=Cc2cccc([N+](=O)[O-])c2)n1 | 1.3 | 0.69
Cc1cc(SCC(=O)NN=Cc2ccccc2C(=O)O)c(C)cc1Br | 2.3 | 0.69
COc1ccc(C(=NO)C(C)(C)NO)cc1 | 0.0 | 0.7
CCOC(=O)C(C)=NNC(=O)c1ccc([N+](=O)[O-])cc1 | 2.3 | 0.68

The list goes on:
SMILES | UCH37 DUB inh | Ecoli growth
O=C1C2C3C=CC(CC3)C2C(=O)N1N=Cc1c(O)ccc2ccccc12 (stereo unspecified) | 2.4 | 0.69
O=C(Cn1c2c(c(=O)n3ncnc13)CCC2)NN=Cc1ccc(Cl)cc1 | -0.6 | 0.68
O=C(CCc1ccc(S(=O)(=O)N2CCOCC2)cc1)NN=Cc1ccc(F)cc1F | -0.3 | 0.67
O=C(NN=Cc1ccc2c(c1)OCO2)c1cc(-c2ccccc2)nc2ccccc12 | -11 | 0.72
Fc1ccc2c(c1)C(=NNc1ccccn1)CCS2 | 7.5 | 0.67
O=C(C=NO)Nc1cccnc1 | -0.2 | 0.71
Cc1ccccc1NC(=O)CC1SC(=Nc2nccs2)N(C)C1=O (stereo unspecified) | 5.2 | 0.7
COc1ccc(C(=O)ON=C(C)c2cnccn2)cc1 | 1.4 | 0.67
CC1=NNC(=O)C1CCC(=O)NN=Cc1ccco1 (stereo unspecified) | 3.8 | 0.63
Cc1nn(-c2ccccc2)c(Cl)c1C=NNS(=O)(=O)c1ccc(Br)cc1 | 4.8 | 0.67

In a second layout: results already given.
SMILES,UCH37 DUB inh,Ecoli growth
COc1cc(C=NNC(=O)CNC(=O)c2cccs2)ccc1O,-0.2,0.67
Fc1ccccc1C=NNc1ncnc2nc[nH]c12,12,0.68
COc1cccc(C=NNC(=O)C(=O)N2CCCCCC2)c1OC,1.0,0.68
COc1cccc(C=NNC(=O)CNC(=O)C(c2ccccc2)c2ccccc2)c1O,1.6,0.7
COc1ccc(C=NOCc2ccccc2C#N)c(OC)c1,4.9,0.61
CON=C(CN1CCCCC1)c1ccc(Cl)cc1,3.7,0.66

Additional results.
SMILES | UCH37 DUB inh | Ecoli growth
CCN1CCN(CC(=O)NN=Cc2ccc(F)cc2F)CC1 | -1.0 | 0.72
COC(=O)C(=NNc1ccccc1Cl)Sc1nnc(C(O)c2ccccc2)n1-c1ccccc1 (stereo unspecified) | 2.4 | 0.75
COc1ccc(C=NO)cc1COc1ccc(NC(C)=O)cc1 | 1.8 | 0.76
COc1ccc(OC)c(C2C3=C(N=c4sc(=Cc5cccc(O)c5)c(=O)n42)c2ccccc2CC3)c1 (stereo unspecified) | 1.6 | 0.71
CCC(=O)NN=C(C)CC(=O)Nc1ccc(F)cc1 | -1.1 | 0.7

Structural class, the entries above containing an NH in an aromatic ring (eight)
SMILES | UCH37 DUB inh | Ecoli growth
Cc1cc(C(=O)NN=Cc2ccc(Br)o2)n[nH]1 | 4.2 | 0.69
Fc1ccccc1C=NNc1ncnc2nc[nH]c12 | 12 | 0.68
CCCOc1ccccc1C=NNc1ccnc(=O)[nH]1 | 3.6 | 0.51
O=C(Cc1cc(=O)[nH][nH]1)NN=Cc1ccccc1[N+](=O)[O-] | 4.9 | 0.72
Cc1cc(=O)[nH]c(NN=Cc2cccc([N+](=O)[O-])c2)n1 | 5.3 | 0.68
COc1cc(C=Nn2c(-c3n[nH]c4c3CCC4)n[nH]c2=S)ccc1O | 4.4 | 0.71
O=C(CSc1nc2ccccc2[nH]1)NN=C/C=C/c1ccccc1[N+](=O)[O-] | 2.2 | 0.69
O=C(NN=Cc1cccc(Cl)c1)c1n[nH]c2c1CCCC2 | 6.4 | 0.71

Bioassay records (PubChem BioAssay)

These rows are one share of the data. The share of hits here may be higher or lower than overall.
